# Apaf-1 inh: inhibitors of human Apaf-1 apoptosome | O14727 | inhibition, % at 20 µM | 330,000 tested, 0.71% active | reconstituted apoptosome caspase-3 activity, DEVD-Rh110 fluorescence | AID 489030; active = inhibition of at least 40% at 20 µM;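 also: plate controls were DMSO wells for no effect and DEVD-CHO caspase inhibitor wells for full effect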
#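 Material: reconstituted apoptosome with Apaf-1, cytochrome c, caspase-9, procaspase-3, dATP. Technique: Rh110 fluorescence intensity. Buffer or medium: pH 7.5 Hepes buffer with CHAPS, BSA, DTT. Times: 30 min plus 50 min, RT.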
# A3G deaminase: inhibitors of human APOBEC3G DNA deaminase; Q9HC16; recombinant A3G, ssDNA deamination FAM/TAMRA fluorescence; inhibition, % at 20 µM; 330,000 tested, 0.28% active;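 active = inhibition of at least 40% at 20 µM, with no more than 30% in the related APOBEC3A deaminase screen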;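 also: plate controls were DMSO wells with A3G for no effect and wells lacking A3G enzyme for full effect; some compounds called inactive have numbers as strong as hits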
# SENP1 FRET inh: inhibitors of human SENP1 SUMO protease catalytic domain; Q9P0U3; recombinant SENP1 catalytic domain, CyPet-SUMO1-YPet FRET cleavage; inhibition, % at 10 µM; 360,000 tested, 0.21% active; AID 624204;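 active = inhibition at least 30% at 10 µM, raw YFP signal under a set limit, fluorescence ratio 0.5 to 1.5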;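 also: 0% = enzyme with DMSO and 100% = no enzyme wells; some results filed as inactive read as strong as hits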
#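 system = hSENP1 catalytic domain, recombinant | reagent = SFCypet-SUMO1-SFYpet substrate at 25 nM | doses = one dose per compound, 10 µM, 0.5% DMSO | incubation = enzyme reaction for 50 min at room temperature, dark | measured by = FRET, CFP and YFP emission | controls = no-enzyme low, enzyme-DMSO high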
# SENP8 block: inhibitors of human SENP8 protease | Q96LD8 | recombinant SENP8, Nedd8 substrate fluorescence | inhibition, % at 20 µM | 360,000 tested, 0.64% active | AID 602440; in the data active = inhibition mostly above about 40%, no sharp cut-off; inactive = mostly below about 27%
# Target sequence (Q96LD8 whole entry, looked up): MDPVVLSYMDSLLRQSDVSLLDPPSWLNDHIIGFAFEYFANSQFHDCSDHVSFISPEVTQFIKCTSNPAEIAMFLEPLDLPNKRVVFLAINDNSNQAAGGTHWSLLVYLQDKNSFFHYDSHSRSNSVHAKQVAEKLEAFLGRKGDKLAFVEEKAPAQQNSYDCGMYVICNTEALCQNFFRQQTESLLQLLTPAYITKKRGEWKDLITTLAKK
# UBC13 polyUb: blocks human UBC13 polyubiquitin chain formation | P61088 | TR-FRET | inhibition, % at 20 µM | 330,000 tested, 0.47% active; in the data active = inhibition above about 45%, passing the limit was not always enough
# Target sequence (P61088 whole entry, looked up): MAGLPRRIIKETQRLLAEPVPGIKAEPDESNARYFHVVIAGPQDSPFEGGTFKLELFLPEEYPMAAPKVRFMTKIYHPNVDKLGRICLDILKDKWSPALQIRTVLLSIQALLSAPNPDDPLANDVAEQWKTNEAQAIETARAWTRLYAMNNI
# * = called active by the depositor. These rows are one share of the data; count on the stated rates, not on these rows.
SMILES,Apaf-1 inh,A3G deaminase,SENP1 FRET inh,SENP8 block,UBC13 polyUb
CCCOc1ccc(S(=O)(=O)N2CCCC2)cc1[N+](=O)[O-],-11,-1,2,20,8
Cc1ccc(-n2c(SCC(=O)N(C)C)nnc2-c2ccco2)cc1,-1,-7,1,16,6
CN1CCNC(=O)C1CC(=O)NCC1(c2ccccc2)CCCCC1 (configuration not stated),8,-4,-3,-1,4
COc1cccc(NC(=O)Nc2cc(C)ccc2OC)c1,7,-1,2,14,9
O=[N+]([O-])c1ccc2c3n([n+]([O-])c2c1)CCN=C3c1ccc(Cl)cc1,18,-4,-21,-6,-30
CC(=O)Oc1ccc(-c2cc3ccc(OC(C)=O)cc3oc2=O)cc1,-15,-3,-39,-445,7
C/C(=N\NC(=O)CCc1c[nH]c2ccccc12)c1ccc([N+](=O)[O-])cc1,-7,-3,2,21,10
COc1cccc2cc(C(=O)CS(=O)(=O)c3ccc(Cl)cc3)c(=O)oc12,11,1,-22,-6,-6
CN(Cc1ccccc1)C(=O)c1ccc2c(c1)OCCO2,3,-3,2,20,7
COC(=O)CCC(=O)Nc1cccc([N+](=O)[O-])c1,7,14,1,4,-16
COc1ccc(NC(=S)NC(=O)c2ccccc2)cn1,3,0,0,-1,-9
CCCOC(=O)CSc1nc(N2CCOCC2)c2c(c1C#N)CC(C)(C)OC2,4,-2,1,-26,3
COc1ccccc1C(CC(=O)Nc1ccccc1C)c1ccc(OC(C)C)cc1 (configuration not stated),-3,-5,1,11,4
CC(C)CCn1nnnc1CN1CCN(c2ccccc2)CC1,-10,-7,0,6,2
Cn1nc(C(=O)OCC(=O)N2CCc3ccccc32)c2ccccc2c1=O,8,-4,0,12,-5
COC(=O)c1cccc(NC(=O)c2ccc(S(=O)(=O)N3CCN(C)CC3)cc2)c1,2,-7,-2,6,-11
CC1CCN(C(=O)CCCNC(=O)Cn2cnc3sc4c(c3c2=O)CCCC4)CC1,4,2,1,14,4
O=C(CSc1n[nH]c(-c2cccs2)n1)NCCc1ccccc1,3,0,1,3,-2
Cn1ncc(Cl)c1C(=O)Nc1ccncc1,5,-2,3,5,-2
Cc1ccc(C2CC(c3ccccc3)=NN2c2ccccc2)o1 (configuration not stated),8,-3,-62,-386,19

# Among those listed so far, these have an aryl thioether with sulfur outside any ring.
SMILES,Apaf-1 inh,A3G deaminase,SENP1 FRET inh,SENP8 block,UBC13 polyUb
Cc1ccc(-n2c(SCC(=O)N(C)C)nnc2-c2ccco2)cc1,-1,-7,1,16,6
CCCOC(=O)CSc1nc(N2CCOCC2)c2c(c1C#N)CC(C)(C)OC2,4,-2,1,-26,3
O=C(CSc1n[nH]c(-c2cccs2)n1)NCCc1ccccc1,3,0,1,3,-2

# Additional compounds.
SMILES,Apaf-1 inh,A3G deaminase,SENP1 FRET inh,SENP8 block,UBC13 polyUb
CCCSc1nc(N2CCCC2)c2c(c1C#N)CC(C)(C)OC2,32,0,1,-38,21
CCCCOC(=O)c1ccc(NC(=O)c2cnc3n(c2=O)CCS3)cc1,-1,-5,0,-202,2
C=CCNC(=O)C1(S(=O)(=O)c2ccccc2)CC=CC1,-384,-6,-1,6,-2
CC1(C)Cc2c(C#N)c(SCc3ccccc3)nc(N3CCOCC3)c2CO1,19,-3,1,-58,-4
Cc1cccc(NC2SC(=O)N(CC(=O)O)C2=O)c1 (configuration not stated),-18,-6,0,8,-1
Cc1[nH]n2c(=O)c3c(nc2c1-c1cccc2ccccc12)CCC3,11,-6,-1,-350,1
Cc1ccccc1OCc1nc(-c2ccc(NC(=O)c3ccc4c(c3)OCO4)cc2)no1,-1,-3,-5,0,-14
COc1ccc(Cl)c2sc(N3CCN(C(=O)C4=COCCO4)CC3)nc12,13,-6,0,11,-3
COC(=O)c1cccc(S(=O)(=O)N2CCC(NC(=O)NC34CC5CC(CC(C5)C3)C4)CC2)c1,4,-4,-2,7,3
Cc1cc(C)c(C(N)=O)c(Nc2cccc(Cl)c2)n1,-8,-5,4,6,3
Cc1ccc(CNC(=O)Cn2cnc(S(=O)(=O)N3CCCCC3)c2)o1,-3,-3,4,14,-4
O=C1COc2ccc(C(=O)COC(=O)CNC(=O)c3ccco3)cc2N1,-3,-1,2,23,-6
COC(=O)c1cccc(S(=O)(=O)N2CCC(NC(=O)Nc3cccc(F)c3)CC2)c1,4,-3,3,11,1

# Four of these compounds, reformatted.
Cc1cccc(NC2SC(=O)N(CC(=O)O)C2=O)c1 (configuration not stated)
  Apaf-1 inh = -18
  A3G deaminase = -6
  SENP1 FRET inh = 0
  SENP8 block = 8
  UBC13 polyUb = -1

Cc1cc(C)c(C(N)=O)c(Nc2cccc(Cl)c2)n1
  Apaf-1 inh = -8
  A3G deaminase = -5
  SENP1 FRET inh = 4
  SENP8 block = 6
  UBC13 polyUb = 3

CCCCOC(=O)c1ccc(NC(=O)c2cnc3n(c2=O)CCS3)cc1
  Apaf-1 inh = -1
  A3G deaminase = -5
  SENP1 FRET inh = 0
  SENP8 block = -202
  UBC13 polyUb = 2

CCCSc1nc(N2CCCC2)c2c(c1C#N)CC(C)(C)OC2
  Apaf-1 inh = 32
  A3G deaminase = 0
  SENP1 FRET inh = 1
  SENP8 block = -38
  UBC13 polyUb = 21

# Taken from above.
# SENP8 block, CCCCOC(=O)c1ccc(NC(=O)c2cnc3n(c2=O)CCS3)cc1 → -202
# A3G deaminase, CCCSc1nc(N2CCCC2)c2c(c1C#N)CC(C)(C)OC2 → 0
# SENP8 block, Cc1[nH]n2c(=O)c3c(nc2c1-c1cccc2ccccc12)CCC3 → -350
